Cruzain noTriton: blocks cruzain activity in detergent-free assay. Potency, µM, for inactives: max response, negative = inhibition, hits mostly inhibitors. P25779. purified cruzain, Z-FR-AMC fluorescence, no detergent. 200,000 compounds, 2.3% hits. AID 1476;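 further: plate controls were enzyme without inhibitor for no effect and buffer without enzyme for full effect; nearly all actives have a fitted effect of over 40% in size; top concentration of the series not given in the record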
Target sequence (P25779 123-467 limits assumed): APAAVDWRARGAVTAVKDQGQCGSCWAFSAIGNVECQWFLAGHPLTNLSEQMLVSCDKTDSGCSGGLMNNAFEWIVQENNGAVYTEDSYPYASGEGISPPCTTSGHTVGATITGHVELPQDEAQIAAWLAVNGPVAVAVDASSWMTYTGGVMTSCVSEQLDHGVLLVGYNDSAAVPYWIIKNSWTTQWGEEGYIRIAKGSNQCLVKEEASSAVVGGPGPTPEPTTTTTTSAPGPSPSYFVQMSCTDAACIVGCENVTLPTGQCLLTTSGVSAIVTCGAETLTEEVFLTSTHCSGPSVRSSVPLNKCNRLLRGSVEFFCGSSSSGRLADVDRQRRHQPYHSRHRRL
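Detergent-free condition (0.00005% Triton X-100) in acetate buffer pH 5.5 with DTT. 1.5 nM enzyme and compound were pre-mixed 15 min, then 2 uM Z-FR-AMC substrate added; reaction progress from fluorescence change between first and third reads (60 s).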
LASV entry inh: blocks Lassa virus binding to or entry into cells; AID 540256; Lassa virus pseudotype entry inhibition, cell reporter; control for the full effect not named in the record; Potency, µM (series often up to 37.9 µM), inactives show at the highest dose activity change, negative = inhibition, hits mostly inhibitors; 300,000 compounds, 1.2% hits; active means well fitted inhibition curve with a large enough effect; inconclusive means small, poorly fitted or top-dose-only effect, or effect the other way; inactive means flat fitted curve, though single readings scatter; tested in HEK293 cells; further: on the % scale 0 is the no-effect control and ±100 the full control effect; nearly all actives have a fitted effect of over 50% in size; luciferase read-out
NS1 function inh: influenza NS1 inhibition | S. cerevisiae slowed by influenza A NS1, growth recovery by OD600 | Potency, µM (top dose mostly 46.1 µM), for the others: at the highest dose activity, positive = more growth | 270,000 compounds, 0.4% hits | AID 2326; active means well fitted rising curve with a large enough effect; inconclusive means small, poorly fitted or top-dose-only effect; inactive means no such curve, though single readings can be large or run the other way; further: nearly all actives have a fitted effect of over 50% in size
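OD600 was taken as the measure of yeast growth restored by compound in an NS1-expressing S. cerevisiae strain. Cells had been washed out of glucose medium and diluted 1:100 into galactose -URA medium, pH 6.0.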
Cruzain inh Det: inhibitors of Trypanosoma cruzi cruzain with detergent; Potency, µM, for inactives: max response, negative = inhibition, most hits filed as inhibitors; purified cruzain, Z-FR-AMC fluorescence, 0.01% Triton; AID 1478; P25779; 200,000 compounds, 0.43% hits;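 further: plate controls were neutral wells for no effect and buffer without enzyme for full effect; nearly all actives have a fitted effect of over 40% in size; top concentration of the series not given in the record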
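Purified cruzain (1.5 nM final) was preincubated with compounds for 15 min at room temperature in 100 mM sodium acetate pH 5.5, 5 mM DTT, 0.01% Triton X-100. Reaction started with 2 uM Z-FR-AMC; AMC fluorescence change over 60 s gave activity.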
StopGo reporter: FMDV 2A StopGo reporter, luciferase signal. 410,000 compounds, 1.2% hits. Potency, µM (series often up to 57.9 µM), without a hit: at the top dose signal change, negative = less light. human cells with a luciferase reporter of 2A StopGo recoding; control for the full effect not named in the record; active = well fitted falling curve with a large enough effect; inconclusive = small, poorly fitted or top-dose-only effect; inactive = no such curve, though single readings can be large or run the other way; tested in HEK293T cells; further: on the % scale 0 is the no-effect control and ±100 the full control effect; nearly all actives have a fitted effect of over 45% in size; luciferase light after 4 h
Marburg entry inh: Marburg virus entry inhibition | Marburg virus pseudotyped entry inhibition, cell reporter; control for the full effect not named in the record; about a third of the inactives were read at about 46 µM | 300,000 compounds, 1.8% hits | AID 540276 | Potency, µM (highest dose often 37.8 µM), without a hit: at the top dose activity change, negative = inhibition, hits mostly inhibitors; active = well fitted inhibition curve with a large enough effect; inconclusive = small, poorly fitted or top-dose-only effect, or effect the other way; inactive = flat fitted curve, though single readings scatter; tested in HEK293 cells; about a fifth of its hits are not listed in these tables; further: on the % scale 0 is the no-effect control and ±100 the full control effect; luciferase read-out
SARS PLpro yeast: SARS-CoV PLP inhibition in yeast; AID 485353; S. cerevisiae expressing SARS-CoV PLpro, growth rescue; control for the full effect not named in the record; Potency, µM (doses to about 32.9 µM), for inactives: at the top dose activity, positive = growth rescue; 330,000 compounds, 0.19% hits; active means well fitted rising curve with a large enough effect; inconclusive means small, poorly fitted or top-dose-only effect; inactive means no such curve, though single readings can be large or run the other way; further: 0% is about no effect; nearly all actives have a fitted effect of over 55% in size; growth read by luminescence after 48 h
RE007 growth inh: less growth of the S. pombe RE007 Vpr strain; 360,000 compounds, 0.21% hits; S. pombe RE007 Vpr strain, BacTiter-Glo ATP luminescence, 24 h; control for the full effect not named in the record; AID 651644; Potency, µM (top dose mostly 92.2 µM), inactives show at the highest dose activity change, negative = less growth; active = well fitted falling curve with a large enough effect; inconclusive = small, poorly fitted or top-dose-only effect; inactive = no such curve, though single readings can be large or run the other way;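 further: on the % scale 0 is the no-effect control and ±100 the full control effect; nearly all actives have a fitted effect of over 50% in size; the assay follows cell death caused by Vpr and the record does not say whether a fall means rescue or toxicity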
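Fission yeast strain RE007, carrying one chromosomally integrated HIV-1 vpr copy, was seeded at OD 0.01 in PMG+AL medium with 23 nL pinned compound. After 24 h at 30 °C and 99% humidity, viability was read by BacTiter-Glo luminescence.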
Active calls of the source: *; ? = inconclusive; . = not tested or not shown; & = joins results of further samples; [ ] = remark or other dose. Unless noted, the call rests on the fitted dose curve; in most records, active means well fitted curve in the direction sought with a large enough effect; inconclusive means small, poorly fitted or top-dose-only effect, or another doubt; inactive means no such curve, though single readings can be large; an effect the other way counts as inactive or inconclusive. Potency means the concentration at half of the fitted maximal effect.

structure	Cruzain noTriton	LASV entry inh	NS1 function inh	Cruzain inh Det	StopGo reporter	Marburg entry inh	SARS PLpro yeast	RE007 growth inh
COc1cccc(CNC(=O)Cn2cc3c(n2)-c2c(oc(C(=O)N4CCCC4)c2C)CC3)c1	19%	?	.	-3.0%	-23%	.	.	.
CCOC(=O)C1=C(CS(=O)(=O)c2ccccc2)NC(=O)NC1c1cc(OC)c(O)c(OC)c1 (stereo not drawn)	.	.	-3%	.	-24%	.	6%	3%
C[C@H](NC(=O)c1ccco1)C(=O)Nc1nc(-c2ccccn2)cs1	.	-12%[46.1 µM]	.	.	-18%	-7%	.	4%
CCOc1ccc(NC(=O)CN(C)C(=O)CC(NC(=O)c2ccccc2)c2ccccc2)cc1OCC (stereo not drawn)	.	2%	.	.	-9%	-3%	-5%	-18%
C/C(=N\NC(N)=O)c1ccc(-n2ccnc2)cc1	.	1%[46.1 µM]	.	.	-10%	-2%	2%	-13%
O=c1[nH]cnc2c1C(c1ccccc1[N+](=O)[O-])c1c(nc[nH]c1=O)O2	-7%	-6%	4%	3.6%	-15%	1%	3%	10%
CCOC(=O)CC(=O)c1sc2c(c1N)c(=O)[nH]c(=O)n2-c1ccc(OC)cc1	.	.	9%	.	11%	.	-1%	7%
C=CCn1c(=S)[nH]c2nc3c(cc2c1=O)COC(C)(C)C3	5%	?	6%	-4.0%	10%	-4%&-4%	-4%	-2%
Cc1ccc(NC(=O)CN2C(=O)S/C(=C\c3cccn3-c3cccc(C(=O)O)c3)C2=O)c(C)c1	?	4%	2%	-10%	-19%	?	-2%	10%
CCOc1cccc(C(=O)NC(=S)Nc2cccnc2)c1	-7%	?	26%	-6.7%	42%[activator]	?	4%	-6%
O=C1C=CC2(C=C1)O[C@H](Cc1ccccc1)[C@@H](Cc1ccccc1)O2	.	7.1µM*	.	.	4µM*	2.8µM*	.	?
COc1ccc(Cc2nnc(SCC(=O)c3ccc4c(c3)OCO4)o2)cc1	.	-25%	.	.	0%	2%	-1%	-11%
Cc1cc(C)nc(SCC(=O)Nc2ncccn2)n1	-2%	1%	1%	-1.6%	.	-4%	10%	.
CN1c2ccccc2-c2nc3ccccc3n2C1c1cccs1 (stereo not drawn)	24%	?	-68%	30%	-29%	?	-32%	8%
Cc1ccc(OCC(=O)OCc2cc(=O)n3nc(C4CC4)sc3n2)cc1	-8%	12%[46.1 µM]	.	1.6%	-5%	.	.	.
COCCNC(=O)/C(C#N)=C/c1c(F)cccc1Cl	.	20%	-35%	.	-27%	-8%[46.1 µM]	-3%	3%
C[C@@H]1CC[C@@]2(O[C@H](CCO)C[C@@H](O)[C@@H]2O)O1	0%	-17%	8%	0.9%	5%	12%	3%	-9%
CC1CN(C(=O)/C=C/c2ccccc2[N+](=O)[O-])CC(C)O1 (stereo not drawn)	.	0%	1%	.	-2%	0%[46.1 µM]	0%	-10%
COc1ccccc1NC(=O)c1cc(Cl)nc2ccccc12	.	9%[46.1 µM]	-4%	.	-6%	?	-1%	5%
Cn1nnnc1SCSc1nnnn1C	-7%	-1%	-2%	-0.3%	-6%	-6%	5%	7%
Cc1ccc(NC(=O)C2(c3cccs3)CCOCC2)cc1C	7%	12%	6%	-2.6%	-22%	-4%	9%	3%
Cc1[nH]c(C)c(S(=O)(=O)NCCc2ccccc2)c1C(=O)N1CCCCC1	.	26%[46.1 µM]	7%	.	56%[activator]	1%[46.1 µM]	.	-4%
O=C1CC(c2ccncc2)c2cc3c(cc2N1)OCO3 (stereo not drawn)	-2%	3%	4%	-2.0%	-12%	6%[46.1 µM]	2%	-1%
COc1ccccc1OCC(=O)N(Cc1nc(-c2ccccc2)no1)C(C)C	.	7.9µM*	-13%	.	-2%	?	-3%	66%
CCc1nn(Cc2ccc(Cl)cc2)c(=O)c2cc3cc(C)ccc3n12	12%	10%[46.1 µM]	.	-1.8%	-4%	?	.	.
COc1ccc(CCNC(=O)CC(c2ccccc2)c2cccc(C)c2O)cc1OC (stereo not drawn)	.	?	-33%	.	-28%	?	-1%	6%
O=C(CNS(=O)(=O)c1ccc(F)c(Cl)c1)N1CCCCCC1	0%	4%	-1%	-1.8%	5%	2%	7%	-2%
COCCOC(=O)c1c(C)oc2ccc(OC(=O)N(C)C)cc12	10%	-12%	-53%	4.8%	6%	-2%	-52%	-11%
CC1CC(NC(=O)c2c(O)nc3ccccn3c2=O)CC(C)(C)C1 (stereo not drawn)	.	-4%	.	.	-9%	-6%	.	-4%
O=C(N/N=C/c1ccco1)c1ccc(NC(=O)C2CCCCC2)cc1	.	22%[46.1 µM]	9%	.	-2%	26%[46.1 µM]	?	0%
CCOC(=O)c1ccc[n+](CC(=O)c2ccccc2)c1	-7%	1%	10%	1.1%	-9%	6%	19%	.
COc1cccc(CNC(=O)c2ccc3nc[nH]c3c2)c1	-3%	4%	4%	-1.3%	20%	-10%	3%	11%
CN1CCN(/N=C/c2ccc(-c3ccccc3)cc2)CC1	.	?	.	.	1%	?	-7%	-2%
COc1ccc(NC(=O)CN2C(=O)NC(C)(C3CCCCC3)C2=O)c(OC)c1 (stereo not drawn)	.	-5%	.	.	7%	-8%	-15%	3%
CCOC(=O)CSc1nnc(CNc2ccccc2Cl)n1-c1ccccc1	2%	5%	-14%	-3.6%	2%	-15%	-3%	7%
Cc1c(Cl)cccc1Nc1ccccc1C(=O)O	-9%&-1%	.	-5%	-22%&-16%	-24%&-4%	.	-21%	32%
CCOC(=O)C1/C(=N\O)CC(C)(O)C(C(=O)OCC)C1c1ccc(N(C)C)cc1 (stereo not drawn)	10%	5%	4%	-0.1%	-19%	-23%&-23%	-3%	-7%
O=C(COC(=O)C1(c2ccccc2F)CCCC1)N1CCc2ccccc21	-13%	-2%	-2%	-7.2%	-22%	10%	2%	11%
Clc1ccc(N2CC3CCC(C2)N3)nn1	5%	7%	-2%	3.5%	.	-1%&-1%&28%	.	.
CC1Sc2ccc(S(=O)(=O)CCC(=O)NCc3ccccc3Cl)cc2NC1=O (stereo not drawn)	.	.	6%	.	?	.	-12%	0%
c1cncc(CNc2nc(N3CCOCC3)nc(N3CCOCC3)n2)c1	-2%	9%	2%	0.9%	.	3%	2%	14%
Cc1ccc(-c2nnc(Nc3cccc(Br)c3)c3ccccc23)cc1S(=O)(=O)N1CCCCC1	6.3µM*	-23%[46.1 µM]	.	-3.0%	-1%	.	.	.
O=C(Nc1ccc(Br)cc1)N1CCCC(O)C1 (stereo not drawn)	.	.	.	.	42%[activator]	8%[46.1 µM]	1%	-4%
O=C(NC1CCCCC1)C(c1ccncc1)N(Cc1ccccc1)C(=O)c1ccc(-c2ccccc2)[nH]1 (stereo not drawn)	2%	?	-15%	-2.5%	16%	?	-5%	-4%
CN(CC(=O)Nc1cccc(F)c1)C(=O)c1ccc(C(=O)c2ccccc2)cc1	.	3%	.	.	-25%	?	1%	13%
CSCC[C@@H](Nc1nc(-c2ccccc2)nc2c1oc1ccccc12)C(=O)O	18%	-7%	17%	-2.9%	-23%	-3%&25%	-8%	-1%
OC(COc1ccc(Br)cc1)CN1CCOCC1 (stereo not drawn)	4%	0%	-8%	3.7%	-1%	19%	5%	-3%
N#CC1=C2SCN(C3CCCCC3)CN2C(=O)CC1c1ccc(F)cc1 (stereo not drawn)	1%	28%[46.1 µM]	.	?	-8%	10%[46.1 µM]	.	.
CCOC(=O)c1ccc(CNC(=O)Cn2nnc(-c3ccccc3F)n2)o1	.	-10%	.	.	-6%	-6%	0%	-12%
CCOC(=O)C1CCN(c2ncnc3c2nnn3Cc2ccccc2Cl)CC1	.	-15%	-7%	.	-25%	-6%[46.1 µM]	-4%	12%
CSc1ccc(/C=N/NC(=O)c2ccc(C)c(C)c2)cc1	?	?	?	-13%	23%	-19%	-2%	3%
S=c1[nH]nc(-c2cc(-c3ccco3)[nH]n2)n1-c1cccc2ccccc12	-8%	2%	23%	-5.7%	-18%	-2%	6%	-5%
CCOC(=O)C1CCCN(S(=O)(=O)c2ccc(-c3cc(C)no3)s2)C1 (stereo not drawn)	.	?	-20%	.	-25%	-22%[46.1 µM]	3%	2%
O=S(=O)(Nc1cccnc1)c1ccccc1	.	17%	.	.	6%	26%&26%[46.1 µM]	6%	-10%
CCn1c(SCC(=O)Nc2cccnc2Cl)nnc1-c1ccccc1	-8%	0%	2%	-3.4%	-28%	-19%	-2%	-8%
Cc1ccc(NC(=O)Cn2cc3c(n2)CCCC3)c(C)c1	-11%	21%[46.1 µM]	.	-2.0%	-1%	2%[46.1 µM]	.	.
Cc1ccc(NC(=O)COc2ccccc2C(=O)NCCc2ccccc2)cc1	.	.	5%	.	19%	.	-3%	1%
COc1ccc(N2CCN(C(=O)Nc3cccc(C(F)(F)F)c3)CC2)cc1	13%&-10%	11%[46.1 µM]	23%	-8.2%&-5.5%	-27%&-26%	20%&-26%[46.1 µM]	-19%	5%

Screening results: PubChem BioAssay, National Center for Advancing Translational Sciences (NCATS)
